Calb biofilm kill – mixtures killing C. albicans biofilm; hit rate 0.02% among 120,000; C. albicans biofilm persisters + clotrimazole, fluorescence viability; primary screen in compound mixtures of four per well; inhibition, % at 7.6 µM;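 active = inhibition above 30.3% in the primary screen of four-compound pools, then above 30% when the compound was retested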;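 also: compounds exposed to preformed 24 h biofilms for 48 h; the number belongs to the whole pool; some results filed as inactive read as strong as hits; inactives centre near 12; 0% = biofilm with clotrimazole alone and 100% = kill control; retested singly at about 60 µM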
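Incubation: 24 h biofilm formation, then 48 h compound exposure, 37 °C | Material: C. albicans biofilms | Buffer or medium: RPMI/MOPS medium, pH 7.0 | Measured by: 2-h Alamar Blue fluorescence, 535/590 nm excitation/emission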
Numbers without * were called inactive. A portion of the library; count on the stated rates, not on these rows.

SMILES	Calb biofilm kill
O=C(O)CC(NC(=O)C12CC3CC(CC(C3)C1)C2)c1cccc([N+](=O)[O-])c1 (stereo unspecified)	23
CCOC(=O)N1CCN(C(=O)/C(=C\c2ccc(SC)cc2)NC(=O)c2ccccc2)CC1	19
O=C(CSc1nnnn1C1CCCCC1)Nc1ccc(F)cc1	7
CCC(C)(C)C1CCc2c(sc(N)c2C(N)=O)C1 (stereo unspecified)	9
Cc1ccc(OCc2nnc(SCC(=O)Nc3cccc4ccccc34)n2-c2ccccc2)cc1	7
CC(C)Oc1ccc(C(=O)Nc2nnc(SCC(=O)N3CCOCC3)s2)cc1	7
COc1cc(/C=C/c2cc(C(=O)O)c3ccccc3n2)cc(OC)c1O	18
CSc1ccc(S(=O)(=O)NCc2ccccc2C)cc1	3
CC(Oc1ccccc1)C(=O)Nc1cccc(NC(=O)c2ccco2)c1 (stereo unspecified)	29
CCc1ccccc1NC(=S)NC1CC2CCC(C1)N2Cc1ccc(F)cc1 (stereo unspecified)	5
COc1cccc(CNC(=O)C2CCN(S(=O)(=O)c3cccc4cccnc34)CC2)c1	16
Cc1cc2oc(=O)cc(CN3CCN(S(=O)(=O)/C=C/c4ccccc4)CC3)c2cc1C	10
CC1CCCCN1C(=O)COc1ccccc1F (stereo unspecified)	8
CC1=NN(c2ccccc2)C(=O)/C1=C\C=C1\N(C)c2ccccc2C1(C)C	17
C=CCSc1nc2c(c(=O)[nH]1)C(c1ccccc1)C(C#N)=C(N)O2 (stereo unspecified)	20
NC(=O)C1(N2CCCCC2)CCN(C(=O)CSc2nc3ccccc3[nH]2)CC1	10
CN(C)/C=C(\C(=O)c1ccc(F)cc1F)c1nnnn1-c1ccccc1	12
COc1cc(OC)c2c(-c3ccccc3)cc(=O)oc2c1C(CCN1CCN(c2ccccc2)CC1)c1ccc(N(C)C)cc1 (stereo unspecified)	16
COc1ccc(/C=C2\CCCc3c2nc2ccccc2c3C(=O)O)cc1OC	2
Cc1nn(-c2ccc(F)cc2)c(Cl)c1/C=N/NC(=O)c1cccs1	8
COc1ccc(CCN2C(=O)CC(NNC(=O)c3ccccc3Br)C2=O)cc1OC (stereo unspecified)	3
O=C1C(Cc2ccc(O)cc2)NC(=S)N1C1CCCCC1 (stereo unspecified)	26
C1=Nc2ccccc2CN1c1ccccc1	7
C=C(C)c1cccc(C(C)(C)NC(=O)N2CCCC2)c1	12

Grouped by structure, the entries above with an aryl thioether with sulfur outside any ring
SMILES	Calb biofilm kill
CCOC(=O)N1CCN(C(=O)/C(=C\c2ccc(SC)cc2)NC(=O)c2ccccc2)CC1	19
O=C(CSc1nnnn1C1CCCCC1)Nc1ccc(F)cc1	7
Cc1ccc(OCc2nnc(SCC(=O)Nc3cccc4ccccc34)n2-c2ccccc2)cc1	7
CC(C)Oc1ccc(C(=O)Nc2nnc(SCC(=O)N3CCOCC3)s2)cc1	7
CSc1ccc(S(=O)(=O)NCc2ccccc2C)cc1	3
C=CCSc1nc2c(c(=O)[nH]1)C(c1ccccc1)C(C#N)=C(N)O2 (stereo unspecified)	20
NC(=O)C1(N2CCCCC2)CCN(C(=O)CSc2nc3ccccc3[nH]2)CC1	10

The list continues:
SMILES	Calb biofilm kill
Cc1noc(NC(=O)c2ccc(Cl)c(Cl)c2)c1Cl	11
CCc1cc(=O)[nH]c(SCc2ccc(C)cc2)n1	12
O=C(O)c1ccccc1CSc1nc2ccccc2n1Cc1ccccc1C(=O)O	19
CC(C)(C)OC(=O)N1CCC(NC(=O)c2[nH]cnc2C(=O)N[C@@H](Cc2ccccc2)C(=O)OCc2ccccc2)CC1	12
Cn1nc(-c2ccc(C(=O)NCCO)cc2)c2ccccc2c1=O	5
COc1cc(NC(=O)Cc2ccc(F)cc2)cc(OC)c1OC	11
CCOC(=O)NC(=O)c1cn(Nc2ncc(C(F)(F)F)cc2Cl)c(=O)[nH]c1=O	26
O=C(Nc1ccccc1N1CCOCC1)C1CCCCN1S(=O)(=O)c1ccccc1 (stereo unspecified)	15
Cc1nn(C)cc1CN1CCCC(C(=O)c2ccc(-c3ccccc3)cc2)C1 (stereo unspecified)	7
CCCc1nc2ccccc2c(=O)n1CC(=O)c1ccccc1	16
O=C(Nc1ccc(-c2csc(Nc3cccc(C(F)(F)F)c3)n2)cc1)c1cccc(C(F)(F)F)c1	10
CCCCC(CC(O)COCCC)c1n[nH]c(=S)n1-c1ccccc1 (stereo unspecified)	17
COc1cc(C(=O)N/N=C/c2sc(=O)n(-c3ccccc3)c2Cl)cc(OC)c1OC	18
Cc1ccccc1CNC(=O)CCc1ccccc1	14
O=C(Nc1cccnc1)c1cc(F)c(F)cc1Cl	7
COc1ccc(C(=O)c2ccccc2)cc1	18
CC1CCN(c2ccc(C(=O)OCC(=O)NCCN3C(=O)CSC3=O)cc2[N+](=O)[O-])CC1	17
CS(=O)(=O)Nc1ccc(C2=NN(S(=O)(=O)c3ccccc3)C(c3cccs3)C2)cc1 (stereo unspecified)	16
O=C(CSc1nc2[nH]ncc2c(=O)n1-c1ccccc1)NCCc1ccccc1	26
COc1cccc(CNC(=O)CCC2CCCN(C(=O)c3ccoc3)C2)c1 (stereo unspecified)	14
CCC(CC)NC(=O)Cn1c(C(C)NC(C)=O)nc2ccccc21 (stereo unspecified)	13
O=S(=O)(c1ccc(Br)cc1Cl)N1CCN(CCO)CC1	8
Cc1cc(C)n(CC(=O)N/N=C/c2cccs2)n1	9
COc1ccc(-c2csc(/C(C#N)=C/Nc3cc4oc5ccccc5c4cc3OC)n2)cc1	16
COC(=O)CCn1nc(-c2ccc(C)cc2)c2ccccc2c1=O	7
COC(=O)c1sc2nc3c(c(-c4cccs4)c2c1N)CCCC3	16
Nc1ccn([C@H]2CC[C@@H](CO)O2)c(=O)n1	32
CC(C)OC(=O)c1cc(-c2ccc(C=O)o2)ccc1Cl	18
C/C(=C\c1ccccc1)C(=O)Nc1ccc(S(=O)(=O)Nc2ncccn2)cc1	4
O=C(/C=C/c1cccc([N+](=O)[O-])c1)NCCN1C(=O)S/C(=C\c2cccnc2)C1=O	3
c1ccc2c(c1)CCN(c1nc(CN3CCOCC3)nc3sc4c(c13)CCCC4)C2	16
Cc1ccc(C(=O)C(OC(=O)c2c(C)cc(=O)oc2C)c2ccccc2)cc1 (stereo unspecified)	24
CC(C)CCN1C(=O)CC(NNC(=O)c2ccc(S(=O)(=O)N3CCCC3)cc2)C1=O (stereo unspecified)	21
CCc1c(C)nc(SCC(=O)N2CCCCC2CC)[nH]c1=O (stereo unspecified)	25
CC1CCN(CC(=O)N2CC(=O)Nc3ccccc32)CC1	11
COc1ccc([N+](=O)[O-])cc1NC(=O)COC(=O)c1ccccc1O	9
O=C(Nc1ccc(F)cc1)c1nc[nH]c1C(=O)Nc1ccccc1[N+](=O)[O-]	2
COc1ccccc1OCCCOc1c(Cl)cc(C)cc1Cl	24
CC1(C)CC2CC(C)(CN2/C=N/c2sc3c(c2C#N)CC(C)(C)NC3(C)C)C1 (stereo unspecified)	23
COc1cc(NC(=O)COC(=O)c2cnccn2)c(C)cc1[N+](=O)[O-]	8
Clc1cccc(-c2nnc3n2CCCCC3)c1	19
CN(C)/C=C(\C=O)c1cccc(Cl)c1	7
O=C(NCc1ccc(Cl)cc1)C1CCN(S(=O)(=O)N2CCOCC2)CC1	16
O=C(Nc1ccc(Cl)c(S(=O)(=O)N2CCOCC2)c1)c1ccc2c(c1)OCCO2	29
O=C(CNS(=O)(=O)c1ccccc1)N1CCCC1	19
O=c1[nH]c(-c2ccccc2Cl)nc2c1sc(=S)n2-c1ccccc1	10
CC1CN(c2cc(=O)n(-c3ccc(Cl)cc3)c(=O)[nH]2)CC(C)O1 (stereo unspecified)	6
CC(=O)OC(C(=O)NC1CCCCC1)c1ccc(Cl)c(Cl)c1 (stereo unspecified)	8
O=C(CCC(=O)N/N=C/c1c[nH]c2ccccc12)NCc1ccccc1	12
CC(=O)N1CCC2(CC1)CC(=O)c1cc(OCC(=O)N3CCCC3)ccc1O2	12
O=C(NN1C(=O)c2ccccc2C1=O)c1ccncc1	3
Cc1ccc(/C=N/NC(=O)c2ccccc2OCc2cccc(Br)c2)o1	17
Cc1ccc(-n2c(COc3cccc(C)c3)n[nH]c2=S)cc1	14
CCCNC(=O)c1ccc2c(=O)n(Cc3ccco3)c(=S)[nH]c2c1	12
Cc1cc(C)c2sc(NNC(=O)C3COc4ccccc4O3)nc2c1 (stereo unspecified)	-3
CCOC(=O)C(=O)Nc1ccccc1C(=O)NCc1ccccc1	25
NC(=O)c1ccc(NC(=O)COC(=O)CCCc2c[nH]c3ccccc23)cc1	11
COc1cc(/C=N/NC(=O)c2cccc(NC(=O)c3ccccc3Cl)c2)ccc1O	15
N#Cc1c(N(CCO)CCO)nc(N)c2c(N)nc3c(c12)CC(=O)N3Cc1cccs1	5
O=S(=O)(c1ccccc1)c1nc(Nc2cccc(O)c2)sc1Cl	13

Going on with the list:
SMILES	Calb biofilm kill
COCc1c(C(=O)N/N=C(/C)c2ccccc2)nnn1-c1nonc1N	-7
CC(=O)N1N=C(c2ccccc2)OC1c1cccnc1 (stereo unspecified)	14
COc1cccc(CNC(=O)CCC2CCCN(C(=O)CCc3c(C)noc3C)C2)c1 (stereo unspecified)	8
Cc1cccc(N2C(=O)C(Cc3ccccc3)NC2=S)c1 (stereo unspecified)	14
COc1ccc(C2(O)CN(c3ccc(C)cc3)C3=[N+]2CCCC3)cc1 (stereo unspecified)	9
Cc1nnc(Sc2nc3c(c(=O)n(C)c(=O)n3C)n2Cc2ccc(Cl)cc2)s1	4
Nc1nc(SCC(=O)Nc2ccc(Cl)cc2)[nH]c(=O)c1-c1ccccc1	7
O=C(NNC1=Nc2ccccc2SC1)c1ccc(F)cc1	17
CC1(C)C2([N+](=O)[O-])CN3CC1([N+](=O)[O-])CN(C2)C3C(O)C(O)C(O)CO (stereo unspecified)	6
CCCn1c(C)cc(C(=O)COC(=O)CN=C2NS(=O)(=O)c3ccccc32)c1C	17
Cc1cc(-c2nnnn2-c2cc(Cl)cc(Cl)c2)no1	24
Cn1c(-c2ccc3ccccc3n2)[n+](C)c2ccccc21	19
Cc1cc(=O)oc2cc(OCC(=O)Nc3ccc(S(=O)(=O)N(C)C)cc3)ccc12	13
Cc1onc(-c2ccccc2)c1-c1ccnn1S(=O)(=O)c1ccc(Cl)cc1	6
Cc1onc(-c2ccccc2)c1C(=O)NC(=S)NNC(=O)c1cc(-c2ccc(F)cc2)n[nH]1	15
COc1nccnc1NS(=O)(=O)c1ccc(N/C=C2\CCCCC2=O)cc1	13
COCCn1c(SCC(=O)Nc2cc(C(C)(C)C)nn2-c2ccccc2)nc2ccccc2c1=O	9
CNC(=S)N1CCC(NC(=O)C23CC4CC(CC(C4)C2)C3)CC1	20
Cc1ccc(/C=N/NC(=O)c2ccc(Br)o2)s1	23
O=C(N/C=C/n1cnc2cc(C(F)(F)F)ccc21)c1ccccc1F	19
O=C(Nn1c(-c2ccccc2)nc2ccccc2c1=O)c1cccs1	-10
N#CC1C=Cc2ccccc2N1C(=O)c1ccccc1 (stereo unspecified)	16
CN(CC(=O)Nc1ccc(OC(F)(F)F)cc1)C1CCCCC1	9
Cc1c(CCOC(=O)C23CC4CC(CC(C4)C2)C3)sc[n+]1CC#N	9

Gathered by group, the compounds so far containing a COOH group (4)
SMILES	Calb biofilm kill
O=C(O)CC(NC(=O)C12CC3CC(CC(C3)C1)C2)c1cccc([N+](=O)[O-])c1 (stereo unspecified)	23
COc1cc(/C=C/c2cc(C(=O)O)c3ccccc3n2)cc(OC)c1O	18
COc1ccc(/C=C2\CCCc3c2nc2ccccc2c3C(=O)O)cc1OC	2
O=C(O)c1ccccc1CSc1nc2ccccc2n1Cc1ccccc1C(=O)O	19

Additional compounds
SMILES	Calb biofilm kill
Cc1sc2nc(CN3CCCC3)nc(NCc3ccncc3)c2c1C	16
COC(=O)C1C(O)=C(C=Nc2ccccc2)C(=O)CC1(C)C (stereo unspecified)	1
CN(C)CCNC(=S)Nc1ccc(F)c(F)c1F	-7
O=c1cc(Nc2ccc3c(c2)OCCO3)[nH]c(=O)n1-c1ccc(Br)cc1	14
Cc1onc(-c2c(Cl)cccc2Cl)c1NC(=O)NNc1c(Cl)cncc1Cl	25
CCOc1cc([N+](=O)[O-])cc(/C=C2/NC(=O)N(Cc3ccccc3F)C2=O)c1O	17
COC(=O)CCc1nc2cc(Cl)ccc2n(Cc2ccccc2)c1=O	10
O=C(NC(=S)Nc1ccc(F)cc1)c1ccc2c(c1)OCCO2	8
Cc1ccc(/C=N/Nc2nc(N3CCCCC3)nc(N3CCCCC3)n2)o1	10
CC1=C(C(=O)OCc2ccccc2)C(c2ccc(N(C)C)cc2)NC(=O)N1 (stereo unspecified)	17
C[N+]1(CC(=O)OCCCc2ccccc2)CCCC1	7
Cc1ccc(S(=O)(=O)N(C)C)cc1NC(=O)C(C)Sc1ccccc1 (stereo unspecified)	9
C=CCn1c(=NC(=O)c2sc3ccccc3c2Cl)sc2cc(S(N)(=O)=O)ccc21	19
